Screening results from PubChem BioAssay.
YB-1 expression: inhibitors of YB-1 gene expression, primary screen, cell-based, fluorescence | U2OS, qRT-PCR YB-1 vs CDIP delta delta Cp, 16 h; stronger effect = higher value; zero = DMSO, each unit about twofold | delta delta Cp (YB-1 minus CDIP) (concentration not given with the values) | actives 0.37% (n = 30,000);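 active = delta delta Cp rounded down to an integer at or above 3, about 3 SD of DMSO wells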;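 also: higher means less YB-1 transcript or more CDIP transcript relative to DMSO; stock transfer was 100 nL into about 100 µL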
Shh pathway inh: Hedgehog pathway signaling inhibitors, primary screen, luminescence, Shh-LIGHT2 cells, Gli-luciferase; Shh-LIGHT2 Gli-luciferase reporter, 30 h; inhibition, % (test concentration not listed); actives 2.1% (n = 22,000); AID 2313, 2010;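 active = replicate mean of 65% or more; inconclusive = mean lower but half the replicates past it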;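 also: pathway switched on by Shh-conditioned medium diluted 1 in 25 in low serum; 100 nL library stock added to about 40 µL; 0% = median of neutral wells and 100% = positive control level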
MITF inh: inhibitors of MITF, primary screen, MITF inhibitor project, cell-based, luminescence; AID 2240, 2010; actives 0.28% (n = 37,000); TRPM1 promoter luciferase, 24 h; inhibition, % (no concentration beside the values);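 active = most replicates at 85% or more, or half of them and the mean; inconclusive = half reach 85% but not the mean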;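 also: human melanocyte line stably carrying TRPM1 promoter luciferase reporter; 0% = vehicle wells and 100% = a positive control; the first replicate is given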
PD-1 reverse act: activators reversing PD-1 mediated T-cell inhibition, primary screen, luminescence, primary human CD4 T cells, PD-L1 beads | activation, % (concentration not given with the values) | 29,000 tested, under 10 active | CellTiter-Glo 96 h | AID 2316, 2010;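 active = replicate mean of 50% or more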;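 also: 0% = median vehicle wells and 100% = positive control; 100 nL library stock added to about 50 µL; numbers are from one replicate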
The depositor's hits bear a star. These rows are one share of the data, so the mix of outcomes need not match the whole.

How did Cc1cc(C(=O)Nc2cccc3c2O[C@H](CN(C)CC2CCCCC2)[C@@H](C)CN([C@H](C)CO)C3=O)n(C)n1 do in these assays?
YB-1 expression: 0.42; Shh pathway inh: inconclusive; MITF inh: -9; PD-1 reverse act: -2.2

How did COc1cc2ccc(=O)oc2c(OC2OC(CO)C(O)C(O)C2O)c1O (stereo not drawn) do in these assays?
YB-1 expression: -0.14; Shh pathway inh: -14; MITF inh: -22; PD-1 reverse act: 0.9

How did C[C@@H]1CN([C@H](C)CO)C(=O)Cc2cc(NC(=O)CCCCCC(=O)Nc3ccccc3N)ccc2O[C@H]1CN(C)Cc1ccc(Oc2ccccc2)cc1 do in these assays?
YB-1 expression: -0.076; MITF inh: -1; PD-1 reverse act: 1.7

How did Cc1ccc(S(=O)(=O)Nc2ccc3c(c2)CC(=O)N([C@H](C)CO)C[C@@H](C)[C@H](CN(C)S(=O)(=O)c2ccc(Cl)cc2)O3)cc1 do in these assays?
YB-1 expression: -0.075; Shh pathway inh: -9; MITF inh: -1; PD-1 reverse act: 2.4

Results for CNC(=O)NC(=O)Cn1cnc2sc(-c3ccccc3)cc2c1=O ?
YB-1 expression: -0.068; Shh pathway inh: -24; MITF inh: -10; PD-1 reverse act: 0.5

What do the screens show for `CC(C)OC(=O)n1c(=S)oc2ccccc21`?
YB-1 expression: 0.23; MITF inh: 3; PD-1 reverse act: 1.6

What do the screens show for `Cc1ccc(S(=O)(=O)Nc2ccc3c(c2)C(=O)N([C@H](C)CO)C[C@H](C)[C@@H](CN(C)C(=O)Nc2ccc(F)cc2)OCCCC[C@@H](C)O3)cc1`?
YB-1 expression: -0.06; Shh pathway inh: 5; MITF inh: 20

How did Cc1ccc(SCc2cc(=O)[nH]c(SCC(=O)n3c4ccccc4c4ccccc43)n2)cc1 do in these assays?
YB-1 expression: -0.21; Shh pathway inh: 7; MITF inh: 20; PD-1 reverse act: 0.9

What do the screens show for `C[C@@H]1CN([C@@H](C)CO)C(=O)c2cccc(NS(=O)(=O)c3cn(C)cn3)c2O[C@H]1CN(C)Cc1ccc(Oc2ccccc2)cc1`?
YB-1 expression: 0.072; Shh pathway inh: -28; MITF inh: 6

Results for C[C@H](CO)N1C[C@H](C)[C@H](CN(C)S(=O)(=O)c2cn(C)cn2)Oc2c(NC(=O)c3nc4ccccc4s3)cccc2C1=O ?
YB-1 expression: -0.22; Shh pathway inh: 10; MITF inh: -28; PD-1 reverse act: 0.2

Structural class, the entries above with four or more nitrogen atoms.
How did Cc1cc(C(=O)Nc2cccc3c2O[C@H](CN(C)CC2CCCCC2)[C@@H](C)CN([C@H](C)CO)C3=O)n(C)n1 do in these assays?
YB-1 expression: 0.42; Shh pathway inh: inconclusive; MITF inh: -9; PD-1 reverse act: -2.2

How did C[C@@H]1CN([C@H](C)CO)C(=O)Cc2cc(NC(=O)CCCCCC(=O)Nc3ccccc3N)ccc2O[C@H]1CN(C)Cc1ccc(Oc2ccccc2)cc1 do in these assays?
YB-1 expression: -0.076; MITF inh: -1; PD-1 reverse act: 1.7

Results for CNC(=O)NC(=O)Cn1cnc2sc(-c3ccccc3)cc2c1=O ?
YB-1 expression: -0.068; Shh pathway inh: -24; MITF inh: -10; PD-1 reverse act: 0.5

What do the screens show for `Cc1ccc(S(=O)(=O)Nc2ccc3c(c2)C(=O)N([C@H](C)CO)C[C@H](C)[C@@H](CN(C)C(=O)Nc2ccc(F)cc2)OCCCC[C@@H](C)O3)cc1`?
YB-1 expression: -0.06; Shh pathway inh: 5; MITF inh: 20

What do the screens show for `C[C@@H]1CN([C@@H](C)CO)C(=O)c2cccc(NS(=O)(=O)c3cn(C)cn3)c2O[C@H]1CN(C)Cc1ccc(Oc2ccccc2)cc1`?
YB-1 expression: 0.072; Shh pathway inh: -28; MITF inh: 6

Results for C[C@H](CO)N1C[C@H](C)[C@H](CN(C)S(=O)(=O)c2cn(C)cn2)Oc2c(NC(=O)c3nc4ccccc4s3)cccc2C1=O ?
YB-1 expression: -0.22; Shh pathway inh: 10; MITF inh: -28; PD-1 reverse act: 0.2

Later entries:
How did C[C@H](CO)N1C[C@H](C)[C@H](CN(C)S(=O)(=O)c2ccc(Cl)cc2)Oc2ccc(NS(=O)(=O)c3ccc(F)cc3)cc2C1=O do in these assays?
YB-1 expression: 0.56; MITF inh: 16; PD-1 reverse act: -8.1

How did C[C@H]1CN([C@@H](C)CO)C(=O)c2cc(NS(=O)(=O)c3ccc(Cl)cc3)ccc2O[C@H]1CN(C)C(=O)Nc1ccc2c(c1)OCO2 do in these assays?
YB-1 expression: -0.65; MITF inh: 10; PD-1 reverse act: -4.8

What do the screens show for `C[C@@H]1CN([C@H](C)CO)C(=O)c2cc(NC(=O)Cc3cn(C)c4ccccc34)ccc2O[C@@H]1CN(C)S(=O)(=O)c1ccc(Cl)cc1`?
YB-1 expression: 0.2; MITF inh: 13; PD-1 reverse act: -1.0

How did C[C@@H]1CN([C@H](C)CO)C(=O)Cc2cc(NC(=O)Cn3cnnn3)ccc2O[C@@H]1CN(C)C(=O)Nc1ccc(F)cc1 do in these assays?
YB-1 expression: -0.5; Shh pathway inh: -19; MITF inh: 0; PD-1 reverse act: 2.3

How did Cc1cccc(-n2c(N)cc(=O)nc2SCC(=O)N(c2ccccc2)c2ccccc2)c1 do in these assays?
MITF inh: -1; PD-1 reverse act: 0.4

Results for C[C@@H]1CN([C@H](C)CO)C(=O)c2cccc(NS(=O)(=O)c3ccccc3)c2O[C@@H]1CN(C)CC1CC1 ?
YB-1 expression: 0.37; Shh pathway inh: -33; MITF inh: -2; PD-1 reverse act: -0.2

What do the screens show for `C[C@@H]1CN([C@H](C)CO)C(=O)c2cccc(NC(=O)c3ccc(-c4nccs4)cc3)c2O[C@H]1CN(C)CC1CCCCC1`?
YB-1 expression: -0.61; Shh pathway inh: -14; MITF inh: 19

Results for C[C@@H]1CN([C@H](C)CO)C(=O)Cc2cc(NC(=O)NC3CCCCC3)ccc2O[C@@H]1CN(C)C(=O)Nc1ccc2c(c1)OCO2 ?
YB-1 expression: 0.34; Shh pathway inh: 3; MITF inh: 1; PD-1 reverse act: 0.7

How did Cc1noc(C)c1NC(=O)Nc1ccc2c(c1)C(=O)N([C@H](C)CO)C[C@H](C)[C@@H](CN(C)Cc1ccccc1)OCCCC[C@@H](C)O2 do in these assays?
YB-1 expression: -0.39; Shh pathway inh: -21; MITF inh: -5; PD-1 reverse act: 1.6

How did S=c1[nH]c2ccccc2n1Cc1ccccc1 do in these assays?
YB-1 expression: -0.031; MITF inh: 12; PD-1 reverse act: 0.4

What do the screens show for `COc1c(O)cc2oc(-c3ccc(O)c(O)c3)cc(=O)c2c1O`?
YB-1 expression: -0.28; Shh pathway inh: 31

What do the screens show for `Cc1ccc(S(=O)(=O)Nc2ccc3c(c2)C(=O)N([C@H](C)CO)C[C@H](C)[C@@H](CN(C)C(=O)Nc2ccccc2)OCCCC[C@@H](C)O3)cc1`?
YB-1 expression: 0.48; Shh pathway inh: -32; MITF inh: -5; PD-1 reverse act: 0.5

What do the screens show for `C[C@H](CO)N1C[C@H](C)[C@@H](CN(C)Cc2ccccc2)Oc2c(NC(=O)Nc3ccc(F)cc3)cccc2C1=O`?
YB-1 expression: -1.1; Shh pathway inh: -6; MITF inh: -10; PD-1 reverse act: -4.5

How did COc1ccc(CN(C)C[C@@H]2Oc3ccc(NC(=O)c4ccncc4)cc3C(=O)N([C@@H](C)CO)C[C@H]2C)cc1 do in these assays?
YB-1 expression: -0.045; Shh pathway inh: -11; MITF inh: 2; PD-1 reverse act: 0.6

Results for C[C@@H]1CCCCO[C@H](CN(C)C(=O)Nc2ccc3c(c2)OCO3)[C@@H](C)CN([C@H](C)CO)C(=O)c2cc(NC(=O)CCC(F)(F)F)ccc2O1 ?
YB-1 expression: -0.0058; Shh pathway inh: -12; MITF inh: 14; PD-1 reverse act: 0.9

Results for C[C@H]1CN([C@@H](C)CO)C(=O)c2cc(NC(=O)Cn3cnnn3)ccc2O[C@@H]1CN(C)C ?
YB-1 expression: -0.16; MITF inh: -11; PD-1 reverse act: -0.4

What do the screens show for `COc1ccc(NC(=O)Nc2ccc3c(c2)C(=O)N([C@@H](C)CO)C[C@@H](C)[C@H](CN(C)S(=O)(=O)c2ccccc2)O3)cc1`?
YB-1 expression: 0.11; Shh pathway inh: 8; MITF inh: -18; PD-1 reverse act: 1.9

Results for COc1ccc(S(=O)(=O)N(C)C[C@H]2OCCCC[C@@H](C)Oc3ccc(NS(=O)(=O)c4ccc(F)cc4)cc3C(=O)N([C@H](C)CO)C[C@@H]2C)cc1 ?
YB-1 expression: 0.033; Shh pathway inh: 23; MITF inh: 19

How did CCOC(=O)c1cc(=O)c2ccc(OCc3ccccc3)cc2o1 do in these assays?
YB-1 expression: 0.52; Shh pathway inh: -19; MITF inh: -18; PD-1 reverse act: 0.8

Results for COc1ccc(NC(=O)Nc2ccc3c(c2)CC(=O)N([C@@H](C)CO)C[C@H](C)[C@H](CN(C)S(=O)(=O)c2ccc(OC)cc2)O3)cc1 ?
YB-1 expression: -0.29; Shh pathway inh: -4; MITF inh: -3

Results for O=C1NN=C(c2ccccc2)/C1=C1\OC(c2ccccc2)=CS1 ?
YB-1 expression: -0.29; Shh pathway inh: 31; MITF inh: 37; PD-1 reverse act: -0.3

How did Cc1ccc(S(=O)(=O)Nc2ccc3c(c2)CC(=O)N([C@@H](C)CO)C[C@H](C)[C@@H](CN(C)C(=O)Nc2cccc4ccccc24)O3)cc1 do in these assays?
YB-1 expression: 0.49; Shh pathway inh: -13; MITF inh: 4; PD-1 reverse act: -2.0

What do the screens show for `CCc1nnc(NC(=O)CSc2nc(-c3ccccc3)cc(C(F)(F)F)c2C#N)s1`?
YB-1 expression: -0.11; Shh pathway inh: 6; MITF inh: 2; PD-1 reverse act: 2.6

What do the screens show for `C[C@H]1CN([C@@H](C)CO)C(=O)c2cc(NC(=O)Nc3ccc(F)cc3)ccc2O[C@@H]1CN(C)C(=O)Nc1ccccc1`?
YB-1 expression: 0.34; MITF inh: -3; PD-1 reverse act: 0.5

Results for CNC(=S)Nc1cc(Cl)cc(Cl)c1 ?
YB-1 expression: -0.17; Shh pathway inh: 15; MITF inh: 18; PD-1 reverse act: 0.3

Results for COc1ccc(O)c(C(c2c[nH]c3ccccc23)c2c[nH]c3ccccc23)c1 ?
MITF inh: 43; PD-1 reverse act: -1.4

How did C/C=C(/C)C(=O)O[C@H]1[C@H](OC(=O)/C(C)=C\C)[C@]2(CO)[C@H](O)C[C@]3(C)C(=CCC4[C@@]5(C)CC[C@H](OC6OC(C(=O)O)C(O)C(OC7OC(C)C(O)C(OC8OC(CO)C(O)C(O)C8O)C7O)C6O)C(C)(C)C5CC[C@]43C)[C@@H]2CC1(C)C (stereo partly drawn) do in these assays?
YB-1 expression: -1.1; Shh pathway inh: 99*; MITF inh: 102*; PD-1 reverse act: -38

Results for Cc1ccc(S(=O)(=O)Nc2cccc3c2O[C@H](CN(C)S(=O)(=O)c2ccc(Cl)cc2)[C@@H](C)CN([C@H](C)CO)C3=O)cc1 ?
YB-1 expression: 0.19; Shh pathway inh: 11; MITF inh: -7

How did C[C@@H]1CN([C@H](C)CO)C(=O)c2cccc(NS(=O)(=O)c3cccs3)c2O[C@@H]1CN(C)S(=O)(=O)c1ccccc1 do in these assays?
YB-1 expression: -0.084; Shh pathway inh: 3; MITF inh: -7

How did Cn1c(SCC(=O)Nc2cc(Cl)cc(Cl)c2)nnc1-c1ccc(Cl)cc1Cl do in these assays?
MITF inh: 16; PD-1 reverse act: -3.4

What do the screens show for `COc1ccc(C)cc1N(CC(=O)Nc1cccc(Cl)c1Cl)S(C)(=O)=O`?
MITF inh: -12; PD-1 reverse act: -0.1

What do the screens show for `COc1cccc(C(=O)Nc2cc(C)ccc2NC(=O)COc2ccccc2)c1`?
MITF inh: 3; PD-1 reverse act: 0.0

How did COc1ccc(NC(=O)Nc2cccc3c2O[C@@H](CN(C)Cc2ccc4c(c2)OCO4)[C@H](C)CN([C@@H](C)CO)C3=O)cc1 do in these assays?
YB-1 expression: -0.19; Shh pathway inh: -41; MITF inh: 30; PD-1 reverse act: -5.5

How did C[C@@H]1CN([C@H](C)CO)C(=O)c2cccc(NC(=O)C3CCOCC3)c2O[C@@H]1CN(C)Cc1ccc(C(F)(F)F)cc1 do in these assays?
YB-1 expression: 0.28; Shh pathway inh: 7; MITF inh: -6

Results for C[C@@H]1CCCCO[C@H](CN(C)C(=O)Nc2cccc3ccccc23)[C@@H](C)CN([C@H](C)CO)C(=O)c2cc(NC(=O)NC3CCCCC3)ccc2O1 ?
YB-1 expression: 0.23; Shh pathway inh: 3; MITF inh: -12; PD-1 reverse act: -3.9

How did C[C@@H]1CN([C@H](C)CO)C(=O)c2cccc(NC(=O)c3ccncc3)c2O[C@@H]1CN(C)CC1CCCCC1 do in these assays?
YB-1 expression: 0.1; Shh pathway inh: -25; MITF inh: -7; PD-1 reverse act: -0.5

What do the screens show for `C[C@H]1CN([C@@H](C)CO)C(=O)Cc2cc(NS(=O)(=O)c3ccc(Cl)cc3)ccc2O[C@H]1CN(C)Cc1ccc(C(=O)Nc2ccccc2N)cc1`?
YB-1 expression: 0.061; MITF inh: 16; PD-1 reverse act: -0.2
